VDR inh: Inhibitors of the vitamin D receptor (VDR): qHTS; AID 504847, 2011; 0.93% of 400,000 active; Potency, µM, inactives show max response, negative = inhibition, usual class: inhibitors; Vitamin D3 receptor (Homo sapiens), P11473; VDR-SRC2-3 peptide fluorescence polarization, 2 h; active = well fitted inhibition curve with a large enough effect; inconclusive = small, poorly fitted or top-dose-only effect, or another doubt; inactive = no such curve, though single readings can be large or run the other way; note: series mostly up to about 120 µM
Target sequence (P11473 whole entry, looked up): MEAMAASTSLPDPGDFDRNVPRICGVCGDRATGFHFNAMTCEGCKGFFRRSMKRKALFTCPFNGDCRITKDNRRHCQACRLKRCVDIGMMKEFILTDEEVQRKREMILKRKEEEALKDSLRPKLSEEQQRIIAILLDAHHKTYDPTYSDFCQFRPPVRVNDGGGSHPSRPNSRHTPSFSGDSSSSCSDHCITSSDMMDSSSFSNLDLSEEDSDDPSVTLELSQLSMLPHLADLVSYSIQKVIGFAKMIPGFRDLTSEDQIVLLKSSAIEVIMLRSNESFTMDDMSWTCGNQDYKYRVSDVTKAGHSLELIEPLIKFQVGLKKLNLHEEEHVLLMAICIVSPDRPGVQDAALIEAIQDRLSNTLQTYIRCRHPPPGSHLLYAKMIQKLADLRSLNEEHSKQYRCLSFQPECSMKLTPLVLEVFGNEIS
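The screen uses fluorescence polarization to detect compounds that interfere with recruitment of the SRC2-3 coactivator peptide to VDR; plates are read after 2 h at room temperature.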
* = called active by the depositor; u = inconclusive; [ ] = another dose, or the depositor's remark. % is set by controls: 0 for no effect and ±100 for the full control effect; potency is the fitted concentration of half-maximal effect. An excerpt; the hit share may differ from the screen's.

1. CC(=O)Nc1ccccc1OCc1cc(=O)n2c3c(sc2n1)CCCC3
  VDR inh: -12.2%
2. O=C(COC(=O)c1cc([N+](=O)[O-])ccc1N1CCOCC1)c1ccc(F)cc1
  VDR inh: -1.2%
3. COc1ccc(C(=O)NC(Cc2ccc(OC(=O)c3ccc(OC)cc3)cc2)C(=O)O)cc1 (centres undefined)
  VDR inh: 2.7%
4. CCOC(=O)CN1C(=O)C(O)(CC(=O)c2ccco2)c2ccccc21 (centres undefined)
  VDR inh: 6.6%
5. CCN(CC)C(=O)COc1ccc2c(-c3ccc(OC)cc3)cc(=O)oc2c1
  VDR inh: 13.3%
6. Cc1cc(Cl)ccc1NC(=S)Nc1ccccn1
  VDR inh: -9.1%
7. O=C(CCNS(=O)(=O)c1ccc2c(c1)CCN2C(=O)C1CC1)N1CCN(c2ccccc2F)CC1
  VDR inh: 3.0%
8. Cc1ccc(COC(=O)c2[nH]c3c(c2C)C(=O)CC(c2ccc(N(C)C)cc2)C3)cc1 (centres undefined)
  VDR inh: -4.4%
9. CC1(C)Cc2nc(N3CCOCC3)c(C#N)cc2CO1
  VDR inh: -3.9%
10. CCOC(=O)N1CCN(c2c(NCCc3ccc(OCC)c(OCC)c3)c(=O)c2=O)CC1
  VDR inh: -13.2%
11. CC1=Nc2ccccc2/C1=C/c1nc(-c2ccc(C)s2)oc1O
  VDR inh: -11.6%
12. CCCCc1nc2cc(Cl)ccc2o1
  VDR inh: 35.5%[activator]
13. COc1cccc2cc(C(=O)Oc3ccc(NC(C)=O)cc3)c(=O)oc12
  VDR inh: 0.7%
14. O=C(CN1C(=O)NC2(CCOc3ccccc32)C1=O)NCc1ccccc1 (centres undefined)
  VDR inh: -2.7%
15. CC(=O)N1CCN(C(=O)CNC(=O)c2ccc(Br)o2)CC1
  VDR inh: -0.7%
16. O=S(=O)(CCc1nc2ccccc2s1)c1ccc2ccccc2c1
  VDR inh: 3.7%
17. COc1ccc(C(=O)NCc2nnc(SCC(=O)Nc3nc4ccccc4s3)o2)cc1
  VDR inh: 6.2%
18. COc1cc(OC)c(NC(=O)Nc2cccc(OCc3cc(=O)n4ccccc4n3)c2)cc1Cl
  VDR inh: -6.9%
19. Cc1ccc(C(=O)NCc2ccc3c(c2)OCO3)c(C)c1
  VDR inh: 8.3%
20. Cc1cc(C)c2cc(CN(CCCN(C)C)C(=S)NCc3ccccc3)c(=O)[nH]c2c1
  VDR inh: -11.8%
21. CC1CCCN(C(=O)COC(=O)Cn2cnc3ccccc32)C1 (centres undefined)
  VDR inh: -7.5%
22. COC(OC)c1ccc(C#N)c(SCc2ccc(C)cc2)n1
  VDR inh: -2.5%
23. CCOC(=O)c1c(C)[nH]c(C(=O)COC(=O)CCS(=O)(=O)c2ccc(C)cc2)c1C
  VDR inh: -9.5%
24. COc1ccc(OCC(=O)Nn2c(-c3ccc(OC)cc3)nc3ccccc3c2=O)cc1
  VDR inh: 22.1%
25. CCN(CC)c1ccc(NC(=O)Nc2ccccc2)cc1
  VDR inh: -12.3%

26. CCc1nnc(NC(=O)c2cc(-c3ccccn3)nc3ccccc23)s1
  VDR inh: -1.2%
27. COc1ccccc1Nc1nc2ccccc2[nH]1
  VDR inh: 19.4%
28. Cc1cc(C)c(C#N)c(SC2CCCCC2=O)n1 (centres undefined)
  VDR inh: -0.7%
29. COc1ccc(C(C2C(=O)CC(C)(C)CC2=O)C2C(=O)CC(C)(C)CC2=O)cc1
  VDR inh: 56.2µM*
30. Cc1ccc(C)c(NC(=O)c2cc(S(=O)(=O)N3CCN(c4cccc(Cl)c4)CC3)ccc2F)c1
  VDR inh: 16.1%
31. O=C(Cn1c(=O)c2sccc2n(Cc2cccc([N+](=O)[O-])c2)c1=O)NCCc1ccccc1
  VDR inh: -20.1%
32. O=C(NC1CC1)C1CCCN1S(=O)(=O)c1ccc2ccccc2c1 (centres undefined)
  VDR inh: -5.3%
33. COc1ccc(S(=O)(=O)N2CCOC2CNC(=O)C(=O)NCc2ccco2)cc1C (centres undefined)
  VDR inh: 5.9%
34. COc1ccc2c(c1)c(=O)oc1cc(OCC(=O)N3CCC(C)CC3)ccc12
  VDR inh: -0.5%
35. COCCn1c(SCC(=O)c2ccccc2)nc2c(c1=O)SC(C)C2 (centres undefined)
  VDR inh: 1.3%
36. C=CCN1C(=O)NC(c2ccc(OC)cc2)(C(F)(F)F)S/C1=C(\C#N)c1nnc(N2CCOCC2)n1-c1ccccc1 (centres undefined)
  VDR inh: -24.4%
37. CC(=O)Nc1ccc(-c2cc(C(=O)O)c3ccc(C)cc3n2)cc1
  VDR inh: -2.5%
38. Cc1noc(C)c1NC(=O)N(C)C[C@H]1Oc2ccc(NC(=O)Nc3ccccc3)cc2C(=O)N([C@H](C)CO)C[C@@H]1C
  VDR inh: 10.4%
39. CC1CCCC(n2c(=S)[nH]c3ccccc3c2=O)C1C (centres undefined)
  VDR inh: 0.3%
40. CC1CCN(CC(=O)N2c3ccccc3CC2C)CC1 (centres undefined)
  VDR inh: -12.5%
41. Cc1c(-c2ccccc2)oc2c(C(=O)OCCN3CCCCC3)cccc2c1=O
  VDR inh: -10.8%
42. CNc1nc(SCc2ccccc2)nc(N2CCOCC2)n1
  VDR inh: 1.5%
43. COc1ccc(S(=O)(=O)C(C#N)c2nc3ccccc3nc2N2CCCCC2)cc1 (centres undefined)
  VDR inh: 7.5%
44. Cc1ccccc1CN1CCN(S(=O)(=O)c2cccc3nsnc23)CC1
  VDR inh: -1.2%
45. Cc1cc(Nc2ccc(C)c(C)c2)n2cnnc2n1
  VDR inh: 9.9%
46. O=c1n(Cc2ccccc2)nc2n1-c1ccccc1SC2
  VDR inh: u
47. COc1ccc(/C=N/NC(=O)c2cccc(NC(=O)c3ccc(Cl)cc3)c2)c(OC)c1
  VDR inh: -9.7%
48. Cc1ccc2c(c1)c(=O)c1ccccc1n2CCCC(=O)Nc1ccc(Cl)cc1C
  VDR inh: 11.4%
49. Cc1nnc(SCC(=O)NCC(=O)Nc2ccc(F)c(F)c2F)n1Cc1ccccc1
  VDR inh: 3.7%
50. C/C(Cl)=C/Cn1c(SC(C)C)nc2c1c(=O)[nH]c(=O)n2C
  VDR inh: -10.8%

(listing goes on)
cpd	Compound	VDR inh
51	O=c1cc(-c2ccccc2)n2c(SCc3ccc([N+](=O)[O-])cc3)nnc2[nH]1	-7.3%
52	C/C(=N\Nc1ccccc1[N+](=O)[O-])c1ccccc1O	0.5%
53	COc1ccc(C2C(C(C)=O)=C(Nc3ccccc3)CC(C)(O)C2C(C)=O)cc1OC (centres undefined)	-9.2%
54	O=C(Cc1cccc([N+](=O)[O-])c1)Nc1cccc(C(=O)N2CCCC2)c1	-14.9%
55	CCN(CC)S(=O)(=O)c1cc(NC(=O)CCNC(=O)c2ccco2)ccc1C	-0.7%
56	COC(=O)c1ccc(-c2ccco2)n1Cc1cccc(C)c1	-1.3%
57	CCc1ccc(N2C(=O)C3C4C=CC(CC4)C3C2=O)cc1 (centres undefined)	-9.5%
58	O=C(CSc1nc(-c2ccc(F)cc2)[nH]c1-c1ccccc1)NCC1CCCO1 (centres undefined)	-8.7%

From entry 51 to 53, copied from above:
cpd	Compound	VDR inh
51	O=c1cc(-c2ccccc2)n2c(SCc3ccc([N+](=O)[O-])cc3)nnc2[nH]1	-7.3%
52	C/C(=N\Nc1ccccc1[N+](=O)[O-])c1ccccc1O	0.5%
53	COc1ccc(C2C(C(C)=O)=C(Nc3ccccc3)CC(C)(O)C2C(C)=O)cc1OC (centres undefined)	-9.2%

23 of the compounds above, with the structure last.
entry	VDR inh	mol
33	5.9%	COc1ccc(S(=O)(=O)N2CCOC2CNC(=O)C(=O)NCc2ccco2)cc1C (centres undefined)
34	-0.5%	COc1ccc2c(c1)c(=O)oc1cc(OCC(=O)N3CCC(C)CC3)ccc12
35	1.3%	COCCn1c(SCC(=O)c2ccccc2)nc2c(c1=O)SC(C)C2 (centres undefined)
36	-24.4%	C=CCN1C(=O)NC(c2ccc(OC)cc2)(C(F)(F)F)S/C1=C(\C#N)c1nnc(N2CCOCC2)n1-c1ccccc1 (centres undefined)
37	-2.5%	CC(=O)Nc1ccc(-c2cc(C(=O)O)c3ccc(C)cc3n2)cc1
38	10.4%	Cc1noc(C)c1NC(=O)N(C)C[C@H]1Oc2ccc(NC(=O)Nc3ccccc3)cc2C(=O)N([C@H](C)CO)C[C@@H]1C
39	0.3%	CC1CCCC(n2c(=S)[nH]c3ccccc3c2=O)C1C (centres undefined)
40	-12.5%	CC1CCN(CC(=O)N2c3ccccc3CC2C)CC1 (centres undefined)
41	-10.8%	Cc1c(-c2ccccc2)oc2c(C(=O)OCCN3CCCCC3)cccc2c1=O
42	1.5%	CNc1nc(SCc2ccccc2)nc(N2CCOCC2)n1
43	7.5%	COc1ccc(S(=O)(=O)C(C#N)c2nc3ccccc3nc2N2CCCCC2)cc1 (centres undefined)
44	-1.2%	Cc1ccccc1CN1CCN(S(=O)(=O)c2cccc3nsnc23)CC1
45	9.9%	Cc1cc(Nc2ccc(C)c(C)c2)n2cnnc2n1
46	u	O=c1n(Cc2ccccc2)nc2n1-c1ccccc1SC2
47	-9.7%	COc1ccc(/C=N/NC(=O)c2cccc(NC(=O)c3ccc(Cl)cc3)c2)c(OC)c1
48	11.4%	Cc1ccc2c(c1)c(=O)c1ccccc1n2CCCC(=O)Nc1ccc(Cl)cc1C
49	3.7%	Cc1nnc(SCC(=O)NCC(=O)Nc2ccc(F)c(F)c2F)n1Cc1ccccc1
50	-10.8%	C/C(Cl)=C/Cn1c(SC(C)C)nc2c1c(=O)[nH]c(=O)n2C
51	-7.3%	O=c1cc(-c2ccccc2)n2c(SCc3ccc([N+](=O)[O-])cc3)nnc2[nH]1
52	0.5%	C/C(=N\Nc1ccccc1[N+](=O)[O-])c1ccccc1O
53	-9.2%	COc1ccc(C2C(C(C)=O)=C(Nc3ccccc3)CC(C)(O)C2C(C)=O)cc1OC (centres undefined)
54	-14.9%	O=C(Cc1cccc([N+](=O)[O-])c1)Nc1cccc(C(=O)N2CCCC2)c1
55	-0.7%	CCN(CC)S(=O)(=O)c1cc(NC(=O)CCNC(=O)c2ccco2)ccc1C

Remaining list, next part:
cpd	Compound	VDR inh
59	Cc1cc(C(=O)NNS(=O)(=O)c2ccc(C(C)(C)C)cc2)nn1C(C)(C)C	6.7%
60	CNC(=O)COC(=O)c1[nH]c(C)c(C(C)=O)c1C	-0.3%
61	O=C(CC(c1ccccc1)c1ccccc1O)NCc1ccco1 (centres undefined)	3.9%
62	CC(=O)c1ccc(NC(=O)NNS(=O)(=O)c2ccc(F)cc2)cc1	6.6%
63	COc1ccc(-n2cc(C(=O)OCc3ccc(F)c(F)c3)c3ccccc3c2=O)cc1	3.8%
64	CS(=O)(=O)c1ccc(C(=O)N2CCN(S(=O)(=O)c3ccc(C4CCCCC4)cc3)CC2)cc1	-0.6%
65	Cc1occc1-c1nnc(SCC(=O)O)n1-c1ccccc1	-4.9%
66	COCCCNC(=O)CN1C(=O)COc2ccc(S(=O)(=O)N3CC(C)CC(C)C3)cc21 (centres undefined)	-9.3%
67	CC(NC(=O)c1cc(COc2ccc3ncccc3c2)on1)c1ccc(F)cc1 (centres undefined)	1.2%
68	CCOc1ccc(C(=O)Nc2nnc(C)s2)cc1OCC	2.6%
69	Cc1ccc(S(=O)(=O)NCC(=O)N(CC(=O)NCC2CCCO2)C2CCCC2)cc1 (centres undefined)	-1.1%
70	O=C(CN1C(=O)CCS(=O)(=O)c2ccccc21)NCc1ccccc1	8.8%
71	O=C(CCl)Nc1cccc(Oc2cnccn2)c1	0.1%
72	O=C1NC(=Nc2ccc(F)cc2)CS1	-1.0%
73	COc1ccccc1N(CC(=O)Nc1c(C)n(C)n(-c2ccccc2)c1=O)S(=O)(=O)c1ccc(C)cc1	19.6%
74	COC(=O)Cc1csc(NC(=O)CSc2nncn2C)n1	3.3%
75	CCCCCc1ccc(OCCOCCn2c[n+](C)c3ccccc32)c(CCCCC)c1	-4.0%
76	O=c1cnc2cnc(Oc3ccccc3)nc2n1Cc1ccc(F)cc1	u
77	CC(C)(C)OC(=O)N1CCC(c2c(C(=O)NC3CCN(Cc4ccccc4)CC3)cnn2-c2ccc(F)cc2F)CC1	11.6%

Source: PubChem (National Center for Advancing Translational Sciences (NCATS))
